Source: PubChem
RE007 growth inh: qHTS Assay for Inhibitors of the HIV-1 protein Vpr; S. pombe RE007 Vpr strain, BacTiter-Glo ATP luminescence, 24 h; control for the full effect not named in the record; 360,000 compounds, 0.21% hits; Potency, µM (doses to about 92.2 µM), inactives show at the highest dose activity change, negative = less growth; active = well fitted falling curve with a large enough effect; inconclusive = small, poorly fitted or top-dose-only effect; inactive = no such curve, though single readings can be large or run the other way;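 note: % is set by controls: 0 for no effect and ±100 for the full control effect; nearly all actives have a fitted effect of over 50% in size; the assay follows cell death caused by Vpr and the record does not say whether a fall means rescue or toxicity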
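Fission yeast RE007 carrying one integrated HIV-1 vpr copy, seeded at OD 0.01 in PMG+AL medium with 23 nL pinned compound. Grown 24 h at 30 degrees; viability read by BacTiter-Glo luminescence after 5 min.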
LASV entry inh: qHTS for Inhibitors of binding or entry into cells for Lassa Virus; Lassa virus pseudotype entry inhibition, cell reporter; control for the full effect not named in the record; Potency, µM (series often up to 37.9 µM), for inactives: at the top dose activity change, negative = inhibition, most hits filed as inhibitors; 300,000 compounds, 1.2% hits; AID 540256, 2011; active means well fitted inhibition curve with a large enough effect; inconclusive means small, poorly fitted or top-dose-only effect, or effect the other way; inactive means flat fitted curve, though single readings scatter; tested in HEK293 cells; note: % is set by controls: 0 for no effect and ±100 for the full control effect; nearly all actives have a fitted effect of over 50% in size; luciferase read-out
2A StopGo: High Throughput Screening for Foot and Mouth Disease Virus Antivirals. human cells with a luciferase reporter of 2A StopGo recoding; control for the full effect not named in the record. Potency, µM (highest dose often 57.9 µM), for the others: top-dose signal change, negative = less light. 410,000 compounds, 1.2% hits; active = well fitted falling curve with a large enough effect; inconclusive = small, poorly fitted or top-dose-only effect; inactive = no such curve, though single readings can be large or run the other way; tested in HEK293T cells; note: % is set by controls: 0 for no effect and ±100 for the full control effect; nearly all actives have a fitted effect of over 45% in size; luciferase light after 4 h
Marburg entry inh: qHTS for inhibitors of binding or entry into cells for Marburg Virus | Potency, µM (highest dose often 37.8 µM), without a hit: top-dose activity change, negative = inhibition, usual class: inhibitors | Marburg virus pseudotyped entry inhibition, cell reporter; control for the full effect not named in the record; about a third of the inactives were read at about 46 µM | 300,000 compounds, 1.8% hits; active = well fitted inhibition curve with a large enough effect; inconclusive = small, poorly fitted or top-dose-only effect, or effect the other way; inactive = flat fitted curve, though single readings scatter; tested in HEK293 cells; about a fifth of its hits are not listed in these tables; note: % is set by controls: 0 for no effect and ±100 for the full control effect; luciferase read-out
Cruzain Triton: qHTS Assay for Promiscuous and Specific Inhibitors of Cruzain (with detergent). Cruzipain (Trypanosoma cruzi), P25779. purified cruzain, Z-FR-AMC fluorescence, 0.01% Triton. Potency, µM, inactives show max response, negative = inhibition, usual class: inhibitors. 200,000 compounds, 0.43% hits;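 note: plate controls were neutral wells for no effect and buffer without enzyme for full effect; nearly all actives have a fitted effect of over 40% in size; top concentration of the series not given in the record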
Target sequence (P25779 123-467 limits assumed): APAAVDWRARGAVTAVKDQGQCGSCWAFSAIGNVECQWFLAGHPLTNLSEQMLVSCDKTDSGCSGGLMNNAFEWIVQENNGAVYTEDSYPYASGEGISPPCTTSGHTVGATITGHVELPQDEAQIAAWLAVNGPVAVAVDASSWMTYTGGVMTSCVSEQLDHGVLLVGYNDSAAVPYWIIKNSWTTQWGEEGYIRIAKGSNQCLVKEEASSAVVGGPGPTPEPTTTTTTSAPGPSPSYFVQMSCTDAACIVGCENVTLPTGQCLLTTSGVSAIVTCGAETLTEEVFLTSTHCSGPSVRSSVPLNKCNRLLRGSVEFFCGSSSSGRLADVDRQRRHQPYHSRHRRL
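15 min RT preincubation of 1.5 nM cruzain with compound, then 2 uM Z-FR-AMC added; kinetic AMC fluorescence, 60 s delta. Triton X-100 0.01%, pH 5.5.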
NS1 inh: qHTS Assay for Inhibitors of Influenza NS1 Protein Function; S. cerevisiae slowed by influenza A NS1, growth recovery by OD600; Potency, µM (series often up to 46.1 µM), inactives show at the highest dose activity, positive = more growth; 270,000 compounds, 0.4% hits; active means well fitted rising curve with a large enough effect; inconclusive means small, poorly fitted or top-dose-only effect; inactive means no such curve, though single readings can be large or run the other way; note: nearly all actives have a fitted effect of over 50% in size
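Recovery from NS1-induced slow growth read by OD600 in budding yeast switched to galactose assay medium (pH 6.0, -URA) at 1:100 dilution. Compound 23 nl per well; the matching strain lacking NS1 serves as control.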
SARS PLpro yeast: qHTS of Yeast-based Assay for SARS-CoV PLP; Potency, µM (highest dose often 32.9 µM), for the others: at the highest dose activity, positive = growth rescue; S. cerevisiae expressing SARS-CoV PLpro, growth rescue; control for the full effect not named in the record; 330,000 compounds, 0.19% hits; active means well fitted rising curve with a large enough effect; inconclusive means small, poorly fitted or top-dose-only effect; inactive means no such curve, though single readings can be large or run the other way; note: 0% is about no effect; nearly all actives have a fitted effect of over 55% in size; growth read by luminescence after 48 h
Cruzain noTriton: qHTS Assay for Promiscuous and Specific Inhibitors of Cruzain (without detergent) | Cruzipain (Trypanosoma cruzi), P25779 | purified cruzain, Z-FR-AMC fluorescence, no detergent | Potency, µM, inactives show max response, negative = inhibition, actives largely listed as inhibitors | 200,000 compounds, 2.3% hits;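 note: plate controls were enzyme without inhibitor for no effect and buffer without enzyme for full effect; nearly all actives have a fitted effect of over 40% in size; top concentration of the series not given in the record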
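Detergent-free condition (0.00005% Triton X-100) in acetate buffer pH 5.5 with DTT. 1.5 nM enzyme and compound were pre-mixed 15 min, then 2 uM Z-FR-AMC substrate added; reaction progress from fluorescence change between first and third reads (60 s).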
Numbers without * were called inactive; ? = inconclusive; . = no result given; & = joins results of further samples; [ ] = remark or other dose. Unless noted, calls come from the whole dose curve; as a rule, active = well fitted curve in the direction sought with a large enough effect; inconclusive = small, poorly fitted or top-dose-only effect, or another doubt; inactive = no such curve, though single readings can be large; an effect the other way counts as inactive or inconclusive. Potency is the fitted concentration of half-maximal effect. Outcome played no part in choosing rows (roughly 4.5% active in at least one column).

SMILES	RE007 growth inh	LASV entry inh	2A StopGo	Marburg entry inh	Cruzain Triton	NS1 inh	SARS PLpro yeast	Cruzain noTriton
O=C(COc1ccc(/C=N/NC(=O)c2cc3ccccc3o2)cc1Br)Nc1ccccc1	4%	?	-38%	?	25µM*	16%	-8%	10µM*
Cc1nn(C)c(C(=O)Nc2ccn(Cc3c(F)c(F)cc(F)c3F)n2)c1[N+](=O)[O-]	2%	28%	-27%	-5%	1.7%	-7%	7%	-1%
CCOc1ccc(NC(=S)Nc2cc(OC)c(Cl)cc2OC)cc1	-10%	-9%	-9%	8%	-9.5%	25%	21%	2%
CCc1ccc(OCC(=O)N2c3ccccc3CCc3ccccc32)cc1	16%	?	?	?	-12%	2%	-55%	-4%
CCOC(=O)Cc1c(C)nc2c(-c3ccc(OC)cc3)c(C)nn2c1C	-15%	-10%	-18%	-23%	-7.6%	-4%	12%	?
Cc1cc(C)c2c(=O)[nH][nH]c2n1	1%	19%[46.1 µM]	-11%	?	.	.	.	.
COc1cc(NS(=O)(=O)c2ccc(C)cc2C)cc(OC)c1OC	1%	-28%	-45%	?	1.7%	0%	13%	1%
CCOc1ccccc1NC(=S)N1CCC(NC(=O)c2ccco2)CC1	18%	-9%	-9%	13%[46.1 µM]	.	1%	1%	.
COc1ccccc1CCC(=O)Nc1ccc(OC)c(S(=O)(=O)N2CCOCC2)c1	1%	8%	7%	.	.	.	1%	.
O=C(CCOc1ccccc1)NNC(=O)c1ccccc1	-8%	-1%[46.1 µM]	-8%	?	.	.	-1%	.
CS(=O)(=O)N1CCN(c2nc3ccccc3s2)CC1	-9%	?	54%[activator]	?	3.7%	-10%	6%	1%
CCn1c(=O)c2c(nc3n2CCN3c2ccccc2)n(C)c1=O	-18%	13%	-12%	?	.	.	-1%	.
O=c1c2ccccc2[nH]c(=S)n1CCN1CCCC1	-4%	.	-6%	.	.	4%	0%	.
CN1C(=O)NC(=O)C2(Cc3ccccc3N3CCOCC32)C1=O (configuration not stated)	-7%	12%	16%	1%	3.5%	-2%	-8%	3%
CC(C)OC(=O)CC1C(=O)NCCN1C(=S)NC(=O)c1cccs1 (configuration not stated)	-9%	-10%[46.1 µM]	-10%	-8%[46.1 µM]	.	1%	1%	.
Cc1ccc(C)c(C(=O)CSc2nnnn2C(C)C)c1	-12%	3%	32%[activator]	-1%	-1.8%	-13%	-12%	-9%
Cc1ccc(NC(=O)c2c(C)oc3nc(C)nc(N4CCCC4)c23)c(C)c1	.	?	-8%	.	-1.6%	.	.	-6%
Cc1ccc(S(=O)(=O)NCC(C)NS(=O)(=O)c2ccc(C)cc2)cc1 (configuration not stated)	5%	-1%	27%	-25%	-3.0%	-1%[9.22 µM]	4%	2%
COC(=O)c1ccc(OCC2c3cc(OC)c(OC)cc3CCN2C(=O)C2CC2)cc1 (configuration not stated)	2%	?	?	-2%	-3.6%	-5%	3%	?
N#CC1=C2C=CC=CN2CC1=O	25%	9%	-2%	13%	0.4%	5%	3%	-4%
O=C(Nc1ccccc1Oc1ccccc1)c1ccccc1F	15%	-20%	-17%	?	-1.5%	-26%	-24%	20%
Cc1cccc2c1N(CC(=O)OC(C)C)C(=O)C2=O	-8%	?	-14%	-36%	0.5%	-4%	-13%	2%
COCCn1c(SCc2ccc(C(=O)OC)o2)nc2ccccc2c1=O	16%	-12%	.	-9%	-5.8%	-8%	-13%	21%
CC(Cn1cnc2ccccc21)C(=O)O (configuration not stated)	-4%	?	31%[activator]	-1%	1.5%	-2%	-5%	-2%
CCOc1ccc(CN(C)C(=O)CNC(=O)Cc2cccc3ccccc23)cc1	-13%	?	-10%	-26%[46.1 µM]	.	13%	-2%	.
CCOc1ccccc1N1CCN(S(=O)(=O)c2ccc(F)c(F)c2)CC1	-6%	10%	-27%	-2%	-0.7%	-53%	-11%	-6%
O=C(C1=C(O)C(=O)N(CCN2CCOCC2)C1c1ccco1)c1cc2ccccc2o1 (configuration not stated)	3%	.	-3%	.	.	5%	-1%	.
Cc1ccccc1-n1nc2c(c1NC(=O)c1cc3ccccc3oc1=O)CS(=O)(=O)C2	7%	-7%	-11%	0%	-1.7%	-46%	3%	4%
CC1CC2OC2CC1COC(=O)C1CC2OC2CC1C (configuration not stated)	5%	-20%[46.1 µM]	-14%	2%[46.1 µM]	.	.	.	.
O=C(CCN1C(=O)/C(=C/c2cccs2)SC1=S)Nc1cccc(O)c1	-1%	?	0%	?	.	1%	7%	.
CCn1c(O)c(N=NC(=O)CNc2ccc(C)cc2)c2ccccc21	-9%	?	5%	-7%	-9.1%	3%	15%	11%
Cc1cccc(OCC(=O)Nc2cc(Cl)ccc2-n2cncn2)c1C	2%	1%	-11%	-2%[46.1 µM]	.	.	3%	.
O=C(COc1ccccc1Br)NC1CCCC1	-27%	-6%	-17%	-32%	-1.2%	-3%	16%	2%
O=[N+]([O-])c1cccc(-n2nnnc2CN2CCCC2)c1	-4%	-9%	9%	?	.	.	-1%	.
COc1cccc2cc(C(=O)NC(C)c3ccccc3)c(=O)oc12 (configuration not stated)	3%	19%[46.1 µM]	10%	14%[46.1 µM]	.	-3%	0%	.
CC(=O)Nc1ccc(N(C(=O)Cc2cccs2)C(C(=O)NC2CCCC2)c2ccncc2)cc1 (configuration not stated)	9%	-12%	-1%	12%[46.1 µM]	.	-7%	0%	.
O=C(CSc1nncn1-c1ccccn1)Nc1cccc(Cl)c1	4%	-15%[46.1 µM]	-5%	1%[46.1 µM]	.	.	-3%	.
CC(NCC1COc2ccccc2O1)C(=O)NCc1ccccc1 (configuration not stated)	4%	10%	1%	3%[46.1 µM]	.	-5%	0%	.
Cc1ccc(NC(=O)CN2CCN(C3CCCCC3)C(=O)C2=O)cc1	.	-7%[46.1 µM]	-1%	.	0.0%	.	.	-8%
COC(=O)c1ccc(CNC(=O)C2CCC(=O)N(Cc3ccccn3)C2)cc1 (configuration not stated)	-3%	.	-4%	.	.	-1%	-2%	.

Retrieved by compound from the list above (2):
SMILES	RE007 growth inh	LASV entry inh	2A StopGo	Marburg entry inh	Cruzain Triton	NS1 inh	SARS PLpro yeast	Cruzain noTriton
Cc1ccc(NC(=O)CN2CCN(C3CCCCC3)C(=O)C2=O)cc1	.	-7%[46.1 µM]	-1%	.	0.0%	.	.	-8%
O=c1c2ccccc2[nH]c(=S)n1CCN1CCCC1	-4%	.	-6%	.	.	4%	0%	.

(continued)
SMILES	RE007 growth inh	LASV entry inh	2A StopGo	Marburg entry inh	Cruzain Triton	NS1 inh	SARS PLpro yeast	Cruzain noTriton
N#Cc1ccc(-c2cccs2)nc1SCC(=O)Nc1cccc(C(F)(F)F)c1	.	-11%[46.1 µM]	4%	?	-4.3%	.	.	20µM*
COc1ccc(OCC(O)CN2CCCC2)cc1 (configuration not stated)	-5%	.	-9%	.	.	11%	23%	.
CCCCN(CC)C(=O)CSc1cc(=O)n(C)c2ccccc12	1%	2%	0%	15%	0.3%	-2%	-2%	-3%
Cc1nc2nc(-c3ccc(Cl)cc3Cl)nn2c(C)c1CCC(=O)Nc1ccc(F)cc1	.	-6%[46.1 µM]	-10%	3%[46.1 µM]	-1.5%	.	.	-4%
CCOc1cc(/C=C(\CC(=O)O)c2nc3ccccc3s2)ccc1OC	-10%	1%	3%	7%[46.1 µM]	.	2%	-8%	.
Cc1ccc2nc(CN3CCN(S(=O)(=O)c4ccc(F)cc4)CC3)oc2c1	.	-19%[46.1 µM]	0%	.	-3.0%	.	.	3%
COc1ccc(N(C)C(=O)CCS(=O)(=O)c2cccc3nonc23)c(OC)c1	1%	10%	-3%	14%&14%	1.8%	-1%	3%	6%
Cc1ccc(/C=C/C(=O)Nc2cccc3ncccc23)o1	5%	3%	.	8%	-6.8%	-5%	-3%	-12%
O=C(c1cc2nc(-c3ccccc3)cc(-c3ccccc3)n2n1)N1CCC2(CC1)OCCO2	0%	-20%	-10%	?	-16%	13%	-16%	?
CC1(C)CC2(CC(C)(C(=O)CSc3nc4ccccc4s3)OC2=O)C(=O)O1 (configuration not stated)	-7%	3%	5%	3%	-5.9%	?	-6%	-18%
Cn1c(CNC(=O)c2ccco2)nnc1SCCOc1ccccc1	-12%	?	-3%	16%[46.1 µM]	.	2%	0%	.
Cc1ccc(SCC(=O)NN2C(=O)c3ccccc3C2=O)cc1	8%	1%	1%	2%[46.1 µM]	.	10%	0%	.
Cc1nn(C)cc1CN(C)Cc1ccc(OCC(O)CN2CCCCC2)cc1 (configuration not stated)	-7%	.	15%	.	.	1%	0%	.
CN(/C=C/C(=O)C(F)(F)C(F)(F)F)Cc1ccccc1	-1%[3.69 µM]	25%	-1%	-1%	-3.2%	13%	-3%	-9%
Cc1ccc(Cn2cccc(-c3nc4ccccc4s3)c2=O)cc1	30%	9%	36%[activator]	?	-3.5%	4%	-7%	?
Cc1cc(OCC(=O)N2CCC(C(=O)O)(c3ccccc3)CC2)c2c(C)cc(=O)oc2c1	12%	.	-3%	.	.	13%	4%	.
CCOC(=O)c1cc2occc2n1Cc1c(F)cccc1Cl	-17%	-7%	-19%	4%[46.1 µM]	-6.7%	-4%	-4%	-6%
O=C(Nc1nc2ccccc2n1CCOc1ccccc1Cl)c1ccccc1	.	?	54%[activator]	.	-2.0%	.	.	10%
O=C(CSc1ccc2c(c1)OCCO2)Nc1ccc(Br)cn1	-4%	0%	-21%	22%	.	-22%	?	.
O=C(CSC1=NCCS1)N1CCc2ccccc21	-4%	?	38%[activator]	-5%	3.0%	4%	1%	0%
COC(=O)CSC1=NN1c1cc(C)nc(N)n1	15%	.	?	.	.	-2%	1%	.
Cc1cc2c3c([nH]c2cc1S(=O)(=O)NCCCOC(C)C)CC(C)(C)CC3=O	5%	.	23%	.	.	2%	1%	.
CC1Sc2ccc(S(=O)(=O)CCC(=O)NCc3ccc(Cl)cc3)cc2NC1=O (configuration not stated)	-5%	.	?	.	.	-7%	2%	.
Nc1nnc(SCC(=O)NCc2ccc3c(c2)OCO3)s1	-16%	-1%	4%	30%	-1.6%	4%	1%	0%
